Mtb hypoxia rep: PubChem AID 1159583. M. tuberculosis hypoxia-regulated fluorescent reporter, fluorescence. fluorescence inhibition, % (no concentration beside the values). 300,000 tested, 0.1% active;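 active means 35 to 45% if threefold the growth effect, above 45% if 1.5-fold the growth effect; inactive means the rest, general growth blockers included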;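 further: wells of about 50 µL received 100 nL stock; 0% = vehicle wells and 100% = reference inhibitor wells; whole bacteria with a GFP reporter of the hypoxia response; strong numbers were not always called active; many hits fall short of the cut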
RN4220 kill: growth inhibition of S. aureus RN4220, primary screen, OD600 | 330,000 tested, 0.33% active | inhibition, % (test concentration not listed) | 16 h;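 active means z-score of -3 or lower and OD600 up to 0.18 on both plates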;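 further: plate controls were untreated cells for no effect and reference antibiotic for full effect; stock transfer was 100 nL into about 80 µL; one replicate is shown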
PrP 5UTR inh: inhibition of PrP 5' UTR reporter expression. cell-based PrP 5' UTR mRNA reporter, plate reader. inhibition, % (no concentration beside the values). 340,000 tested, 0.35% active. AID 488862, 2010;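 active means every replicate at 50% or more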;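 further: 0 = median of the neutral control wells; tested in H4 reporter cells; numbers are from one replicate; inactives centre near -14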
Autofluor counter: compound fluorescence in toxin protease inhibitor counterscreen | compound autofluorescence counterscreen, microsphere flow cytometry; active compounds read high | fluorescence intensity (concentration not given with the values) | 360,000 tested, 3.1% active;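 active means at least 3 SD above the mean of all compounds, about 16000 in these data; inconclusive means too few beads counted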;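 further: 100 nL of 1 mM stock went into each well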
ugtP null kill: growth inhibition of ugtP-null S. aureus, primary screen, RN4220 ugtP deletion, OD600. AID 1259309, 2017. growth inhibition, % (test concentration not listed). 330,000 tested, 0.54% active. 16 h; some inactives read as strong as hits;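 active means z-score under -3 and OD600 up to 0.15 on both plates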;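 further: plate controls were untreated wells for no effect and antibiotic for full effect; wells of about 80 µL received 100 nL stock; the first replicate is given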
BJeLR lethal: MLPCN primary cell-based screen for lethality selective to Ras in HRASV12 cells. BJeLR (HRASV12) viability, CellTiter-Glo ATP luminescence, 48 h; reference of the scale not given here. inhibition, % (test concentration not listed). 300,000 tested, 0.17% active;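 active means replicate mean above 50%; inconclusive means above 50% but judged a plate artefact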;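 further: 50 nL library stock added to about 25 µL; numbers are from one replicate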
Mtb hypoxia rep growth: further read-out of Mtb hypoxia rep, marked with its call; growth inhibition, %; measured here: M. tuberculosis growth (absorbance);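 0% = vehicle and 100% = reference antibiotic; read after six days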
Starred values were filed as active, the others as inactive; ? = inconclusive; / = no result given.

SMILES	Mtb hypoxia rep	Mtb hypoxia rep growth	RN4220 kill	PrP 5UTR inh	Autofluor counter	ugtP null kill	BJeLR lethal
N#CCCn1cc(CNC2CCC(O)CC2)c2ccccc21 (stereo not drawn)	8	3	3.9	-30	3892	11	2
COc1ccc(C(=O)NCCCN(C)CCCNC(=O)c2ccc(OC)cc2)cc1	2	7	3.9	-2	3505	6	-4
C=CCn1c(O)c2ccc(C(=O)N=NC(=O)c3ccc(F)cc3)cc2c1O	9	-1	1.7	-6	6637	2	-8
COc1ccc(-c2ccc3c(c2)S(=O)(=O)c2cccc(C(=O)NC4CC4)c2C3=O)cc1OC	8	8	3.3	13	3519	-3	/
Cc1cccc(C)c1NC(=O)COC(=O)C1C2CC3OC(=O)C1C3C2 (stereo not drawn)	-11	6	1.9	-22	5884	7	10
CCC(CO)Oc1cc(NCc2cccc(Cl)c2)c2ncn(C(C)C)c2c1 (stereo not drawn)	5	16	5.0	0	3399	-35	/
Cc1nc2ccccc2nc1NN=Cc1ccc(O)cc1O	13	10	4.2	/	/	-4	/
Cc1ccc(F)c(NC(=S)Nc2cccc3ccccc23)c1	/	/	/	-2	4948	/	-7
COc1ccc(C=NNC(=O)CNC(=O)c2ccncc2)cc1	4	2	1.5	/	/	6	/
CN(CC(=O)Nc1ccc(N2CCOCC2)cc1)C(=O)CC(c1ccccc1)c1ccccc1	1	11	3.3	-15	3823	0	/
O=C(CCCC(=O)Nc1ccc(Br)cc1)NN=Cc1ccccc1	5	3	0.9	/	/	3	/
C=CCn1c(SCC(=O)NCc2ccco2)nnc1-c1ccc2ccccc2n1	5	-2	-1.3	-22	4280	-1	-5
O=[N+]([O-])c1ccc2cn(-c3ccccc3)nc2c1	-4	1	15	-139	2078	3	2
COc1ccc(Cn2nnnc2C(c2ccncc2)N2CCOCC2)cc1 (stereo not drawn)	18	5	3.3	-15	6100	3	2
COc1ccc(-c2cc(C(F)(F)F)n3nc(C(=O)NCc4ccco4)c(Cl)c3n2)cc1	0	0	7.4	-18	4424	-13	-6
COc1ccc(-c2noc(CSc3nnc(Cc4ccccc4)n3-c3cccc(C)c3)n2)cc1OC	4	9	4.9	-14	8345	-5	-6
Cc1ccccc1Nc1nc(N)nc(CN2C(=O)NC3(CCCCC3C)C2=O)n1 (stereo not drawn)	2	15	7.1	-39	8777	-1	4
COc1ccc(Cl)cc1CNCCCSc1ncccn1	18	11	2.7	-25	6148	7	7
Nc1ccc(S(=O)(=O)NC(=O)c2ccccc2)cc1	/	/	5.8	1	5554	3	6
CC(=O)Nc1cccc(OCCCNC(=O)c2cccc3ccccc23)c1	2	19	0.9	-8	3597	-4	-5
COc1ccc(C2CC(=O)C(C=NCCN3CCN(C(C)=O)CC3)=C(O)C2)cc1 (stereo not drawn)	2	2	1.1	-7	4358	5	-4
CCOc1ccccc1N(CC(=O)NCC1CCCO1)C(=O)CCC(=O)Nc1ccccn1 (stereo not drawn)	/	/	-1.5	1	2057	8	5
C/C(=N\NC(=O)c1nnn(-c2nonc2N)c1CN1CCOCC1)c1ccc(CC(C)C)cc1	/	/	/	-16	6260	/	4
CCN(CC)c1ccc(NC(=O)c2ccc(Br)o2)c(C)c1	7	5	5.1	-18	20876*	5	7
CCCCn1c(N)c(N(CC)C(=O)c2c(C)noc2C)c(=O)[nH]c1=O	2	-9	-3.4	-4	3013	-7	/
CC1=C(C(N)=O)C(c2ccncc2)n2nc(-c3ccccc3Cl)nc2N1 (stereo not drawn)	/	/	5.8	-16	4862	4	-8
O=C(Nc1cccc(S(=O)(=O)NC2=NCCC2)c1)c1ccc(F)cc1F	-5	-1	0.8	-31	3886	3	/
CCOC(=O)c1cc(C#N)c(SCc2cccc3ccccc23)nc1C	26	8	-10	-17	2361	38	-5
COc1ccc(N(CC(=O)NCCC2=CCCCC2)S(=O)(=O)c2ccc(C)cc2)cc1	1	-5	-0.3	/	/	2	4
CC(C)(C)c1ccc(OCC(=O)N/N=C/C2CC=CCC2)cc1 (stereo not drawn)	/	/	/	-13	3826	/	-11
O=C(NCc1ccco1)C1CCN(C(=O)c2ccc(Cl)cc2Cl)CC1	2	1	1.3	-6	4195	1	-4
OC(CCc1ccncc1)COc1ccccc1 (stereo not drawn)	5	10	2.7	-13	3835	2	0
CCc1ccc(-c2cc(C)no2)cc1S(=O)(=O)N1CCN(c2ccccn2)CC1	11	8	0.7	-12	4811	5	-9
CCCc1noc2c1C(c1cc(Br)ccc1F)C(C#N)=C(N)N2 (stereo not drawn)	13	-12	-3.8	-27	4603	44	1
O=C(c1cccc(F)c1)N1CCN(c2cccc(C(F)(F)F)c2)CC1	8	3	2.7	-18	3655	2	0
CCOC(=O)C1=C(C)N=c2sc(=Cc3cccc(OCC(=O)O)c3)c(=O)n2C1c1ccccc1OC (stereo not drawn)	-20	6	1.8	/	/	-4	/
CCN(C(=O)CSc1nncn1-c1ccccc1)c1c(N)n(Cc2ccccc2)c(=O)[nH]c1=O	10	8	3.5	-27	2595	5	9
COC(=O)[C@H](CCSC)NC(=O)Nc1cc(C)ccc1C	/	/	/	-14	3150	/	2
Nc1cc(Cl)ccc1C(=O)OCC(=O)N1CCCC1	/	/	/	-52	5904	/	-4
CCOC(=O)c1cc(-c2csc(N/N=C/c3ccccc3Cl)n2)on1	/	/	/	-32	4484	/	-22
COCCN1CN=C(NS(=O)(=O)c2ccc(C)cc2)NC1	-8	-4	2.2	1	5484	2	16
CCOc1ccc(CNC(=O)CCS(=O)(=O)c2ccc3c(c2)oc(=O)n3C)cc1	6	-2	2.8	-5	5843	2	-8
COc1ccc(NC(=O)C2CCN(S(=O)(=O)c3cccc4cccnc34)CC2)cc1	/	/	0.0	-14	5203	10	5
Cc1ccccc1Cn1cc(C)c(=O)[nH]c1=O	11	4	6.5	-8	2176	3	11
Cc1cccc(N2CCN(C(=O)Cn3cnc4c3c(=O)n(C)c(=O)n4C)CC2)c1C	4	-4	5.0	-14	2627	-2	6

Six of the compounds above, with values under each structure.
Values run as follows: Mtb hypoxia rep | Mtb hypoxia rep growth | RN4220 kill | PrP 5UTR inh | Autofluor counter | ugtP null kill | BJeLR lethal
> CCc1ccc(-c2cc(C)no2)cc1S(=O)(=O)N1CCN(c2ccccn2)CC1
→ 11 | 8 | 0.7 | -12 | 4811 | 5 | -9
> CCCc1noc2c1C(c1cc(Br)ccc1F)C(C#N)=C(N)N2 (stereo not drawn)
→ 13 | -12 | -3.8 | -27 | 4603 | 44 | 1
> O=C(c1cccc(F)c1)N1CCN(c2cccc(C(F)(F)F)c2)CC1
→ 8 | 3 | 2.7 | -18 | 3655 | 2 | 0
> CCOC(=O)C1=C(C)N=c2sc(=Cc3cccc(OCC(=O)O)c3)c(=O)n2C1c1ccccc1OC (stereo not drawn)
→ -20 | 6 | 1.8 | / | / | -4 | /
> CCN(C(=O)CSc1nncn1-c1ccccc1)c1c(N)n(Cc2ccccc2)c(=O)[nH]c1=O
→ 10 | 8 | 3.5 | -27 | 2595 | 5 | 9
> COC(=O)[C@H](CCSC)NC(=O)Nc1cc(C)ccc1C
→ / | / | / | -14 | 3150 | / | 2

Another view of part of the listing above:
Results follow in this order: Mtb hypoxia rep	Mtb hypoxia rep growth	RN4220 kill	PrP 5UTR inh	Autofluor counter	ugtP null kill	BJeLR lethal
> OC(CCc1ccncc1)COc1ccccc1 (stereo not drawn)
 : 5	10	2.7	-13	3835	2	0
> CCc1ccc(-c2cc(C)no2)cc1S(=O)(=O)N1CCN(c2ccccn2)CC1
 : 11	8	0.7	-12	4811	5	-9
> CCCc1noc2c1C(c1cc(Br)ccc1F)C(C#N)=C(N)N2 (stereo not drawn)
 : 13	-12	-3.8	-27	4603	44	1
> O=C(c1cccc(F)c1)N1CCN(c2cccc(C(F)(F)F)c2)CC1
 : 8	3	2.7	-18	3655	2	0
> CCOC(=O)C1=C(C)N=c2sc(=Cc3cccc(OCC(=O)O)c3)c(=O)n2C1c1ccccc1OC (stereo not drawn)
 : -20	6	1.8	/	/	-4	/

The results go on.
SMILES	Mtb hypoxia rep	Mtb hypoxia rep growth	RN4220 kill	PrP 5UTR inh	Autofluor counter	ugtP null kill	BJeLR lethal
Cc1occc1C(=O)NN=Cc1c[nH]c2ccccc12	-1	5	1.8	/	/	-6	/
O=C1C(=O)N(Cc2cccnc2)C(c2cccc([N+](=O)[O-])c2)/C1=C(\O)c1ccc2c(c1)OCCO2 (stereo not drawn)	0	3	4.0	-16	5057	3	15
O=C(Cc1ccccc1)c1nnc(-c2ccccc2)o1	6	3	4.5	14	3328	0	-1
O=c1nc2ccccc2c(NS(=O)(=O)c2ccccc2)n1-c1ccccc1	/	/	-0.6	-21	5085	0	10
O=C1[C@@H]2C(Cc3ccc(O)cc3)NC3(C(=O)Nc4ccc(F)cc43)[C@@H]2C(=O)N1c1ccc(F)cc1 (stereo partly drawn)	1	-1	-1.4	-27	4219	-8	5
CS(=O)(=O)N1CCN(c2ccc([N+](=O)[O-])cc2C(F)(F)F)CC1	6	14	1.8	-15	/	-1	3
Cc1ccc(NC(=O)c2cc(NC(=O)CCC(=O)O)ccc2N2CCCCC2)cc1	18	7	9.1	-12	10989	2	-5
Cc1c(OCC(=O)NCC(O)c2ccccc2)ccc2c3c(c(=O)oc12)CCC3 (stereo not drawn)	7	-6	1.8	-8	5876	12	7
CC1(C)Cc2cccc(OCC(=O)N3CCN(c4ccccc4Cl)CC3)c2O1	-4	-8	8.9	-9	4750	4	-2
COCCN1CCn2c(nc3cc(NC(C)=O)ccc32)C1	11	-6	2.0	-9	5285	1	-4
CC1=C(C(=O)Nc2ccc(Cl)cc2)C(c2ccncc2)C(C#N)=C(SCC(N)=O)N1 (stereo not drawn)	/	/	/	-52	11218	/	0
COc1ccccc1/C=C/C=C1\Oc2c(ccc(O)c2CN(C)C)C1=O	9	7	0.6	2	5293	4	13
Cc1c(NC(=O)C(C)OC(=O)[C@@H](NC(=O)c2ccccc2)C(C)C)c(=O)n(-c2ccccc2)n1C (stereo partly drawn)	16	6	3.6	/	9989	2	5
C/C(=C\C(=O)c1ccccc1)Nc1cccc(O)c1	17	3	7.8	-107	8708	3	9
CC(=NNc1nc2ccccc2[nH]1)c1ccc2c(c1)OCO2	-7	-4	-1.2	/	/	-3	/
CCc1c(C)[nH]n(-c2ccc(Oc3ccccc3)c(S(=O)(=O)O)c2)c1=O	3	8	3.2	-7	22582*	7	/
O=[N+]([O-])c1ccccc1/C=N/NC1=NCCN1	/	/	/	-10	4480	/	-7
CCOc1ccccc1CNC(=O)c1ccc2nc(N3CCOCC3)sc2c1	-1	11	2.4	-18	5861	8	8
CC(=O)N1CCOc2ccc(S(=O)(=O)NC[C@H]3O[C@@H](n4cnc5c(N)ncnc54)[C@H](O)[C@@H]3O)cc21	-13	3	4.7	-15	3737	10	/
Nc1cc(-c2ccc(Cl)cc2)nn1S(=O)(=O)c1ccc(Cl)cc1	-13	-10	4.2	-3	4067	-7	-7
Cc1ccc(NC2=CC(=O)CC(C)(C)C2)c(N)c1	/	/	-0.7	-16	3843	2	-5
CCCc1cc(=O)[nH]c(SCC(=O)N2CCOCC2)n1	6	-5	1.4	-31	3084	0	0
O=C(COc1ccccc1)NCCS(=O)(=O)N1CCN(c2ccccc2)CC1	4	5	3.0	-14	?	4	-3
Cc1cc(C)cc(NC(=O)c2cccnc2)c1	11	2	2.9	-15	3136	4	-5
CC1(C)CC2(CC(c3cccs3)c3cc(Cl)c(O)cc3O2)NC(=S)N1 (stereo not drawn)	/	/	-11	-21	2738	-6	1
CCC(C)NCC(O)(c1ccc(Cl)cc1)c1ccc(Cl)cc1 (stereo not drawn)	-1	10	0.2	-2	4526	-5	7
O=C(c1cnsn1)N1CCN(c2ccccn2)CC1	15	11	2.2	-15	2896	6	-4
CC(=O)Nc1ccc(NC(=O)CN(C)CCC#N)cc1	16	5	-0.1	-32	4242	-2	4

Pulled one by one from the entries so far, two records:
SMILES	Mtb hypoxia rep	Mtb hypoxia rep growth	RN4220 kill	PrP 5UTR inh	Autofluor counter	ugtP null kill	BJeLR lethal
O=[N+]([O-])c1ccccc1/C=N/NC1=NCCN1	/	/	/	-10	4480	/	-7
CCCc1cc(=O)[nH]c(SCC(=O)N2CCOCC2)n1	6	-5	1.4	-31	3084	0	0
